miR-21 reporter: miR-21 reporter, rising signal. HeLa miR-21 FLuc reporter, luciferase, 48 h. Potency, µM (top dose mostly 38.3 µM), inactives show at the highest dose reporter change, positive = more light. 340,000 tested, under 10 active. AID 2288; active = well fitted rising curve with a large enough effect; inconclusive = small, poorly fitted or top-dose-only effect; inactive = no such curve, though single readings can be large or run the other way;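 further: % of control where 0% means no effect; miR-21 action dims this reporter so a rising signal means less miR-21 action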
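Luminescence from a firefly luciferase reporter carrying a miR-21 binding site downstream, stably expressed under a CMV promoter in HeLa cells that make miR-21 endogenously, reports miRNA modulation after 48 h compound exposure up to approximately 40uM final.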
Rango complex inh: Rango-importin beta binding inhibition. Q14974. Rango CFP/YFP FRET sensor + importin beta, 45 min. Potency, µM (top dose mostly 92.2 µM), inactives show at the top dose inhibition of complex formation. hit rate 0.031% among 340,000. AID 540263; active = rising FRET ratio curve, often small or poorly fitted; inconclusive = mostly compound fluorescence or quenching in the first reads; inactive = flat curves in all reads;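 further: potency means the concentration at half of the fitted maximal effect; 0% = DMSO wells and 100% = buffer wells lacking importin beta; nearly all actives have a fitted effect of over 15% in size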
Target sequence (Q14974 whole entry, looked up): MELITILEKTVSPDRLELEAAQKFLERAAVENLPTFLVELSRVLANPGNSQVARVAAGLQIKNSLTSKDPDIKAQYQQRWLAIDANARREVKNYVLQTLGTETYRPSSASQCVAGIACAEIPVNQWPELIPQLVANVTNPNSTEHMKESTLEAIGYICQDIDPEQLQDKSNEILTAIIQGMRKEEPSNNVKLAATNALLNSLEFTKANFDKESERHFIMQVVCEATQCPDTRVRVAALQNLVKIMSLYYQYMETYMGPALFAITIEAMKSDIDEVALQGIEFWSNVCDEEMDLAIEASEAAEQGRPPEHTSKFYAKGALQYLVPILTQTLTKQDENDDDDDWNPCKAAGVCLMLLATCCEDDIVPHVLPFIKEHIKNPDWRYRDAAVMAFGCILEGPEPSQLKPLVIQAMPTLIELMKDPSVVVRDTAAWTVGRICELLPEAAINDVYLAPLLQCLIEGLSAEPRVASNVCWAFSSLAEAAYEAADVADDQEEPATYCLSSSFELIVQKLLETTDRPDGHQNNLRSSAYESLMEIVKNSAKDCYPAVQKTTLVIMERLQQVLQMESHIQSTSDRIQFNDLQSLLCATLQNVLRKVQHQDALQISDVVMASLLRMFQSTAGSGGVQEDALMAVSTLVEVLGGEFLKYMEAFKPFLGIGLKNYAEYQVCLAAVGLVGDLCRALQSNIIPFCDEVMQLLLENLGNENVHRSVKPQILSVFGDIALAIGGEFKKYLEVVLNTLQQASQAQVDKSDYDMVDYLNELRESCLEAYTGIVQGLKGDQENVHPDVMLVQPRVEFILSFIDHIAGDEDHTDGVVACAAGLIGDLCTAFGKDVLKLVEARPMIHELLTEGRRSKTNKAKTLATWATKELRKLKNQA
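FRET biosensor (snurportin 1 IBB flanked by EYFP and cerulean), 50 nM, with compound 5 min, then 0.125 microM importin beta in PBS, 1 mM DTT, 0.02% Tween-20, 0.1% BSA. CFP/YFP ratio read after 45 min at room temperature; pre-read flags interference.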
Rango release inh: inhibitors of RanGTP-induced Rango-importin beta complex dissociation; O95149+P62826; Biochemical FRET Rango-importin beta, RanGTP-induced dissociation; Potency, µM (titrated, usually from 46.1 µM), for inactives: at the top dose activity change, negative = inhibition; hit rate 0.071% among 340,000; active means falling FRET ratio curve, often poorly fitted, with flat reads before Ran was added; inconclusive means other falling curves, or compound fluorescence or quenching; inactive means flat or rising ratio curve;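 further: potency means the concentration at half of the fitted maximal effect; % of control where 0% means no effect; nearly all actives have a fitted effect of over 45% in size; -100% = wells without RanGTP and RCC1; the record marks most hits as doubtful in a second field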
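Rango (0.1 uM)–importin beta (0.25 uM) complex; RanGTP-RCC1 trigger; 45 min RT; CFP/YFP FRET read.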
GLA inh pH 4.5: blocks human alpha-galactosidase A at pH 4.5; P06280; purified enzyme, 4-MU-alpha-Gal fluorescence, pH 4.5; activity change, negative = inhibition, % at 105 µM; 230,000 tested, under 10 active; inconclusive = small, poorly fitted or top-dose-only inhibition, or a rising curve; inactive = flat fitted curve, though single readings scatter; no compound was filed as active;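 further: 0% = full activity with enzyme and -100% = basal without enzyme; dose as in the result columns while the protocol names 77 µM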
* marks the source's active call; other numbers are inactive results; ? = inconclusive; nt = not tested or not shown; & = joins results of further samples. Only part of the results is shown. The share of hits here may be higher or lower than overall.

SMILES	miR-21 reporter	Rango complex inh	Rango release inh	GLA inh pH 4.5
O=C(NC(=S)Nc1ccc(Br)cc1)C1CCCCC1	-9%	-3.2%	18%	nt
COc1ccccc1-n1c(-c2ccco2)n[nH]c1=S	0%	-1.0%	0%	nt
O=C(NCCc1ccccn1)c1cccc(S(=O)(=O)N2CCc3ccccc32)c1	-5%	3.9%	-3%	-12
Cc1cccnc1NC(=O)Cn1nc(C)c([N+](=O)[O-])c1C	0%	-0.7%	1%	3
Nc1nc2n(n1)C(c1ccco1)CC(c1ccc(F)cc1)N2 (centres undefined)	-10%	12%	19%	2
O=S(=O)(/N=S1/CC=CCN1S(=O)(=O)c1ccccc1)c1ccccc1 (centres undefined)	25%	1.5%	1%	6
COc1cc(C2C3C(=O)N(Cc4ccccc4)C(=O)C3ON2c2ccccc2)cc(OC)c1O (centres undefined)	-6%	0.2%	1%	-2
Cc1ccc(Nc2nnc(SCC(=O)Nc3ccc(S(=O)(=O)N4CCOCC4)cc3)s2)cc1	-12%	1.3%	-2%	-4
CCc1ccccc1N1C(=O)c2cccc3c(N4CCOCC4)c([N+](=O)[O-])cc(c23)C1=O	-6%	0.1%	2%	-9
COc1ccc(C)cc1-n1nnnc1SC(C)C(=O)NC1CCCC1 (centres undefined)	nt	-0.3%	8%	nt
N#Cc1cc2c(nc1SCc1ccncc1)CCC2	-46%	?	-23%	1
CC1CCC(C(C)C)C2=C1C(C#N)(C#N)C(C#N)(C#N)C(c1ccccc1)N2 (centres undefined)	-31%	?	?	9
CC(C)C(NC(=O)c1ccccc1)c1nnc(SCC(=O)Nc2nccs2)n1C (centres undefined)	2%	-5.3%	11%	0
COc1ccc(S(=O)(=O)N(C)CC(=O)N2CCC(C)CC2)cc1Cl	-14%	-2.4%	-3%	4
Nc1ccccc1-c1ccc(Cl)cc1	nt	0.7%	12%	nt

13 of the compounds above, with bars between the fields.
compound | miR-21 reporter | Rango complex inh | Rango release inh | GLA inh pH 4.5
O=C(NCCc1ccccn1)c1cccc(S(=O)(=O)N2CCc3ccccc32)c1 | -5% | 3.9% | -3% | -12
Cc1cccnc1NC(=O)Cn1nc(C)c([N+](=O)[O-])c1C | 0% | -0.7% | 1% | 3
Nc1nc2n(n1)C(c1ccco1)CC(c1ccc(F)cc1)N2 (centres undefined) | -10% | 12% | 19% | 2
O=S(=O)(/N=S1/CC=CCN1S(=O)(=O)c1ccccc1)c1ccccc1 (centres undefined) | 25% | 1.5% | 1% | 6
COc1cc(C2C3C(=O)N(Cc4ccccc4)C(=O)C3ON2c2ccccc2)cc(OC)c1O (centres undefined) | -6% | 0.2% | 1% | -2
Cc1ccc(Nc2nnc(SCC(=O)Nc3ccc(S(=O)(=O)N4CCOCC4)cc3)s2)cc1 | -12% | 1.3% | -2% | -4
CCc1ccccc1N1C(=O)c2cccc3c(N4CCOCC4)c([N+](=O)[O-])cc(c23)C1=O | -6% | 0.1% | 2% | -9
COc1ccc(C)cc1-n1nnnc1SC(C)C(=O)NC1CCCC1 (centres undefined) | nt | -0.3% | 8% | nt
N#Cc1cc2c(nc1SCc1ccncc1)CCC2 | -46% | ? | -23% | 1
CC1CCC(C(C)C)C2=C1C(C#N)(C#N)C(C#N)(C#N)C(c1ccccc1)N2 (centres undefined) | -31% | ? | ? | 9
CC(C)C(NC(=O)c1ccccc1)c1nnc(SCC(=O)Nc2nccs2)n1C (centres undefined) | 2% | -5.3% | 11% | 0
COc1ccc(S(=O)(=O)N(C)CC(=O)N2CCC(C)CC2)cc1Cl | -14% | -2.4% | -3% | 4
Nc1ccccc1-c1ccc(Cl)cc1 | nt | 0.7% | 12% | nt

More records:
SMILES	miR-21 reporter	Rango complex inh	Rango release inh	GLA inh pH 4.5
CC(=O)c1cccc(NC(=O)Nc2ccc(C)cc2)c1	-38%	-4.4%	8%	9
CCOC(=O)C1CCN(C(=O)c2ccc(OC3CCN(C(=O)COC)CC3)cc2)CC1	-10%	-0.1%	-14%	nt
Nc1c(O)ccc2c1C(=O)c1ccccc1C2=O	-18%	-0.9%	3%	2
O=C(/C=C/c1ccccc1)N/C(=C\c1ccco1)C(=O)NCCO	-5%	1.7%	3%	-12
CCOc1ccc(CN(C(=O)c2cccs2)C2CCS(=O)(=O)C2)cc1 (centres undefined)	-8%	-3.4%	-19%	nt
CC(=O)NNc1cccc(Cl)n1	-5%	2.3%	7%	4
Cc1ccc(OC(=O)c2cccc(S(=O)(=O)N(C)C)c2)c(-n2nc3ccccc3n2)c1	-61%	2.3%	8%	2
CC(=O)Nc1ccc(NC(=O)CSc2ncc(C(=O)Nc3ccccc3)c(=O)n2C)cc1	nt	?	-1%	nt
CC1CCN(S(=O)(=O)c2cccc(C(=O)Nc3nccs3)c2)CC1	13%	-1.6%	1%	0
O=C(CSc1nnc(Nc2ccccc2F)s1)NC1CCS(=O)(=O)C1 (centres undefined)	nt	-2.2%	?	nt
CSc1ccccc1NC(=O)C(C)N(C)CC(=O)N1CCN(Cc2ccccc2)CC1 (centres undefined)	nt	-4.0%	16%	nt
CC(OC(=O)c1ccc(Cl)cc1)C(=O)NCC1CCCCC1 (centres undefined)	nt	0.2%	-8%	nt
COc1nnc(-c2ccc(N3CCOCC3)c(NC(C)=O)c2)c2ccccc12	-9%	-0.9%	-8%	11
Cc1ccc(C2=NN(S(C)(=O)=O)C(c3cccs3)C2)cc1 (centres undefined)	-55%	-1.0%	2%	6
O=C(O)Cn1cc(F)c(=O)[nH]c1=O	nt	0.4%	16%	nt
CC(C)C[C@@H](CN(C)N=O)N(C[C@H](Cc1ccccc1)N(CCc1ccccc1)N=O)N=O	12%	-0.5%	-5%	-5
CCn1c(CCNC(=O)c2ccc(OC)c(OC)c2)nc2ccccc21	-6%	2.7%	-9%	-5
C=CCC(Nc1ccco1)c1ccccc1 (centres undefined)	-6%	-3.4%	-15%	-1
COc1ccccc1/C=C(\C)C(=O)c1c(C)cc(C)[nH]c1=O	-4%	-1.5%	-16%	nt
CCOC(=O)N1CCC(N(C(=O)Nc2ccc(Cl)c(Cl)c2)C(C)CC)CC1 (centres undefined)	5%	2.7%	11%	0
Cc1ccc2nc(SCC(=O)NC3CCCC3)[nH]c2c1	-2%	-0.6%	-4%	nt
CC1CCN(C2=NN3C(=N)/C(=C\c4ccc(OC(=O)c5ccco5)cc4)C(=O)N=C3S2)CC1	-5%	?	-20%	nt
O=c1c2sccc2[nH]c(=S)n1Cc1ccccc1	-13%	0.7%	1%	3
COC(=O)Nc1ccc([N+](=O)[O-])cc1OC	0%	3.5%	-15%	-3
COC(=O)Cn1c(=NC(=O)C2CC2)sc2c(C)cc(C)cc21	nt	0.0%	2%	nt
CC(C)NC(=O)C1CCN(C2CCN(C(=O)c3cc4c(s3)CCCCC4)CC2)CC1	0%	-1.2%	-6%	0
COCc1nc2ccccc2n1CCc1ccccc1	-5%	0.3%	1%	nt
CCOC(=O)c1c(C)[nH]c(C(=O)Cn2c(=O)c3c(ncn3CC)n(Cc3ccccc3)c2=O)c1C	-17%	-0.9%	-2%	-3
Nn1c(SCC(=O)Nc2nc3ccccc3s2)nncc1=O	-19%	2.4%	-2%	1
NCC1CC2c3ccccc3C1c1ccccc12 (centres undefined)	-6%	-3.5%	-12%	nt
CC(C)C(=O)NNC(=O)c1cc2sccc2s1	2%	-5.5%	1%	1
COc1ccccc1C/C(N)=N/OC(=O)c1ccco1	-14%	4.5%	1%	3
COCCN1C(=O)/C(=C/c2ccc(OCc3ccc(C(=O)O)cc3)c(OC)c2)SC1=Nc1ccccc1	-4%	-2.8%	2%	-6
COc1ccc(OCC(=O)N2c3ccc(C)cc3C3CN(C)CCC32)cc1 (centres undefined)	-1%	0.1%	-1%	1
COc1ccc(C(=O)N2CCN(c3ncccn3)CC2)cc1[N+](=O)[O-]	2%	0.5%	9%	nt
COc1cc(C2=NOC(C(=O)Nc3cc(C)on3)C2)cc(OC)c1OC (centres undefined)	-1%	0.2%	-11%	-7
COc1cc2ccccc2cc1C(=O)Nc1ccc(Cl)cn1	-40%	-9.4%	14%	nt
O=C(COc1ccccc1[N+](=O)[O-])NCC1(N2CCCCC2)CCCCC1	nt	0.8%	0%	nt
O=C(CSc1ccccc1C(=O)NCc1ccccc1)NC1CCCCCCC1	-2%	-3.6%	-5%	1
C[C@H](NC(=O)c1nc[nH]c1C(=O)N[C@@H](CCCCNC(=O)OC(C)(C)C)C(=O)OC(C)(C)C)c1ccccc1	19%	0.1%	-9%	-23
O=C(/C=C/c1ccc(F)cc1)NC(=S)Nc1ccccc1	-22%	-1.2%	10%	nt
O=C(O)CCC1(CCC(=O)O)CCCC(CCC(=O)O)(CCC(=O)O)C1=O	nt	1.8%	6%	nt
CCNc1nc(NCC)n2c(SCC(=O)N(CC)C3CCCCC3)nnc2n1	17%	-1.8%	27%	0
C#CCOCCOCCOCCNc1nc(N2CCN(C(=O)C([C@@H](C)O)n3cc([C@@H](N)CCCCN)nn3)CC2)nc(N2CCN(C(=O)[C@H](CCC(=O)O)n3cc([C@@H](N)CCCCN)nn3)CC2)n1 (some centres undefined)	nt	-1.1%	20%	nt
COCCn1c(=O)[nH]c(=O)c2c(C(F)(F)F)cc(-c3cccs3)nc21	-7%	5.2%	-13%	?
CCn1c(CCNC(=O)c2ccc(Cl)cc2Cl)n[nH]c1=S	-5%	0.7%	2%	7
CC(C)C(=O)Nc1cccc2nsnc12	-2%	-0.6%	-3%	-3
Brc1cccc(OCCCCN2CCCCC2)c1	-2%	-6.1%	1%	1
Cc1cc(/C=N/O)c(C)n1-c1ccc(Br)cc1	-4%	-1.7%	0%	-1
CCN(CC)S(=O)(=O)c1ccc(Cl)c(NC(=O)COC(=O)c2cc(-c3ccccc3Cl)nc3ccccc23)c1	3%	?	-8%	-1
CSc1nc2c([nH]1)c(=S)n(C)c(=O)n2C	nt	-3.0%	-3%	nt
COCCNC(=O)NC12CC3CC(CC(C3)C1)C2	-3%	?	8%	-1
COc1ccc(Cl)cc1NC(=O)CN(C)C(=O)CCNC(=O)c1ccccc1OC	nt	5.8%	-4%	nt
Cc1ccc2c(C)nc(/N=C(\N)NC(=O)N3c4ccccc4Sc4ccccc43)nc2c1	2%	-2.7%&-0.2%	-2%&-6%	-3
COCC(=O)N1CCC(Oc2ccc(C(=O)NCCCn3cccn3)cc2)CC1	0%	-1.4%	-10%	nt
Cc1ccc(CNC(=O)COC(=O)c2c(C)noc2C)cc1	-9%	3.3%	-1%	-1
O=C(Nc1ccc(OC(F)(F)F)cc1)c1n[nH]c(Cn2cncn2)n1	-5%	-0.7%	-19%	-18
O=C(O)c1ccccc1C(=O)c1cccc2c(F)cccc12	nt	-0.2%	21%	nt
CCC(C)c1ccc(O)c(/C=N/O)c1 (centres undefined)	-27%	-1.2%	18%	2
CCOC(=O)N1CCN(C2=NC3(CCCCC3)C(C#N)C(=O)N2)CC1 (centres undefined)	0%	1.7%	5%	4
Carrying on.
SMILES	miR-21 reporter	Rango complex inh	Rango release inh	GLA inh pH 4.5
O=C(Nc1ccccc1C(=O)OCn1nnc2ccccc2c1=O)c1ccco1	-5%	1.7%	-6%	10
COc1cc(-c2noc(CCC(=O)NC3CCCCC3)n2)cc(OC)c1OC	-4%	-4.0%	-1%	nt
COc1ccccc1C(=O)NNC(=O)c1cccc(Br)c1	-53%	5.6%	16%	nt
Clc1ccccc1OCCN1CCCCC1	0%	2.0%	0%	-7
Cc1c(C#N)c2ncn(CC#N)c(=O)c2n1-c1ccccc1	-12%	-1.9%	29%	-2
Cc1ccc(-n2nnnc2SCC(=O)NCCC2=CCCCC2)c(C)c1	-4%	-0.7%	0%	-9
CC(C)(C)c1cc(C(=O)NNc2cccc(Cl)c2)n(Cc2ccccc2)n1	1%	-0.9%	-13%	-19
Cc1cc(C2=CC(=O)C[C@H](c3ccc4c(c3)OCO4)C2)ccc1F	nt	0.2%	10%	nt
Cc1[nH]c2ccccc2c1CCNS(=O)(=O)c1ccc(S(N)(=O)=O)cc1	1%	-0.6%	0%	nt
Cc1cc(C)cc(N(CC(=O)NC2CCCCC2)C(=O)CCCC(=O)Nc2ccccn2)c1	11%	2.3%	-1%	nt
Cc1ccc2[nH]c(=O)c(C(c3nnnn3CC3CCCO3)N3CCCc4ccccc43)cc2c1 (centres undefined)	1%	1.0%	-3%	-6
